# Screening results as filed in PubChem BioAssay.
# YjeE inh: qHTS Assay for Inhibitors of YjeE. actives 0.05% (n = 71,000). Potency, µM. tRNA threonylcarbamoyladenosine biosynthesis protein TsaE (Escherichia coli (strain …. purified YjeE, fluorescence polarisation of a bound ADP probe. AID 605, 2007; active = well fitted falling curve; inconclusive = weaker or top-dose-only fall, or a rising curve; inactive = flat or poorly fitted curve;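 also: top concentration of the series not given in the record; excess ADP was the control for the full effect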
#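 Fluorescence polarization of a BODIPY Texas Red–ADP probe (2 uM) bound to purified YjeE (10 uM) was read after 15 min room-temperature incubation with compounds. Loss of polarization marks inhibitors; ADP serves as titrated control.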
# Bst PK mod: Pyruvate Kinase. Potency, µM. partly purified Bacillus stearothermophilus pyruvate kinase, luminescence ATP production; ribose 5-phosphate activator present at AC10. actives 1.2% (n = 51,000); in the data active means potency below about 11 µM; inconclusive means mostly about 12 µM to 25 µM; inactive means weaker than that;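 the screen sought inhibitors and activators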;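 also: potency is read from the fitted curve at half-maximal effect; scaled between full activation by ribose 5 phosphate and full inhibition by luteolin; about four in five hits inhibit and the cells do not say which; series up to 57 µM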
# Starred values were filed as active, the others as inactive; i = inactive; . = no result given.
# The opening 2 entries, ahead of the listing:
SMILES,YjeE inh,Bst PK mod
CN(Cc1ccccc1)Cc1c[nH]c2ccccc12,.,>26
COc1ccccc1NC(=O)c1ccc(C)s1,i,>57

# The listing, from the first entry:
SMILES,YjeE inh,Bst PK mod
CN(Cc1ccccc1)Cc1c[nH]c2ccccc12,.,>26
COc1ccccc1NC(=O)c1ccc(C)s1,i,>57
CC(=O)c1ccc(N2C(=NC(=O)C(C)C)SC3CS(=O)(=O)CC32)cc1 (centres undefined),i,>57
CC(C)[C@H](NC(=O)Nc1cccc(C(F)(F)F)c1)C(=O)O,i,>57
O=S(=O)(c1ccccc1)N1CCC2(CCN(c3ccccc3)CC2)CC1,i,.
COc1cc2cc(Oc3ccc4ccc(=O)oc4c3)c(=O)oc2cc1O,i,.
Cc1ccc2nc(Nc3nc(C)cc(C(F)(F)F)n3)nc(C)c2c1,i,>57
Nc1cccc(O)c1,i,.
CC(C)(C)NC(=O)CSc1n[nH]c(=O)n1-c1ccccc1,i,>57
COc1ccc2c(c1)sc1nc(-c3ccccc3)cn12,i,0.055*
CC(=O)c1ccc(OCC(O)CN2CCN(Cc3ccc4c(c3)OCO4)CC2)cc1 (centres undefined),i,.
COc1cc(-c2noc(CCCC(=O)NCc3ccco3)n2)cc(OC)c1OC,i,>57
CN(CC(=O)O)Cc1oc(CO)cc(=O)c1O,i,.
CC(=C1C(=O)c2ccccc2C1=O)N1CCc2ccccc2C1,i,>57
O=C(c1cccs1)c1coc2ccc(O)c(CN3CCOCC3)c12,i,>57
O=C(O)c1cccc(S(=O)(=O)NCCO)c1,i,.
O=C1c2ccccc2C(O)(O)[C@@]1(O)[C@]1(O)C(=O)c2ccccc2C1(O)O,i,.
CSCC[C@H](NC(=O)OC(C)(C)C)c1nnc(SCc2ccccc2)o1,i,>57
CN(Cc1ccccc1)c1nc2c(c(=O)[nH]c(=O)n2C)n1CCCSc1ncccn1,i,>57
CCN1CCCC1CN(Cc1cc2cc(OC)ccc2[nH]c1=O)C(=O)NCc1ccccc1 (centres undefined),i,>57
Cc1nc2cnc(N(C)C)nc2n(Cc2ccc(F)cc2)c1=O,i,.
C=CCOC(=O)C(C#N)c1nc2ccccc2nc1N1CCN(c2ccccc2OCC)CC1 (centres undefined),.,>26
COc1ccc(C2C3=C(Nc4ncnn42)c2ccccc2CCC3)cc1 (centres undefined),i,>57
CC1CN(S(=O)(=O)c2ccc(C(=O)Nc3sc4c(c3C(N)=O)CCN(C)C4)cc2)CC(C)O1 (centres undefined),i,.
CCOC(=O)c1ccc(CNC(=O)c2cc(C(C)(C)C)oc2C)o1,i,>57
# The list continues.
SMILES,YjeE inh,Bst PK mod
COCC(=O)Nc1nnc(COc2ccccc2)s1,i,>57
O=C(CN1C2=NCCN2c2ccccc21)c1ccco1,i,>57
CCN(CC)c1ccc(NC(=O)Nc2ccc(C(C)=O)cc2)cc1,i,>57
Cc1cccc(N2CCN(C(=O)CCCn3c(=S)[nH]c4cc5c(cc4c3=O)OCO5)CC2)c1C,i,>57
COc1ccc(C2CC(=O)N3C(=C2C#N)SCC3(O)c2ccccc2)cc1 (centres undefined),i,>57
CS(=O)(=O)c1nc(-c2ccccc2)cc(C(F)(F)F)n1,i,.
CCCC(C)c1nnc(NC(=O)C2CCCO2)s1 (centres undefined),i,>57
Cc1ccc(S(=O)(=O)c2c(N)n(C)c3nc4ccccc4nc23)cc1,i,>57
COc1cccc(C2C(C#N)=C(N)OC(C(C)(C)C)=C2C#N)c1 (centres undefined),i,>57
CC1CN(C2CCN(C(=O)COc3ccccc3)CC2)CC(C)O1 (centres undefined),.,>26
CN1CCN(C(c2cccc(C(F)(F)F)c2)c2nnnn2Cc2ccccc2)CC1 (centres undefined),i,>57
Cc1cccc(NC(=O)C(NS(=O)(=O)c2ccc3c(c2)CCC(=O)N3)c2ccccc2)n1 (centres undefined),i,>57
CCOC(=O)C1=C(C)NC(C)=C(C(=O)OCC)C1c1cc2ccc(C)cc2[nH]c1=O,i,>57
Cc1c(NC(=O)CSc2ccccc2C(=O)Nc2cccnc2)c(=O)n(-c2ccccc2)n1C,i,>57
CCC(=O)Nc1cc(-c2nn(C)c(=O)c3ccccc23)ccc1N1CCCCC1,.,>26
Cc1nc2cnc(N3CCOCC3)nc2n(C[C@H]2CCCO2)c1=O,i,.
Cc1ccn2cc(-c3ccc(S(=O)(=O)N4CCOCC4)cc3)nc2c1,i,.
CC(Sc1ccccc1)C(=O)Nc1ccc(S(=O)(=O)N2CCOCC2)cc1 (centres undefined),i,>57
COc1ccc(S(=O)(=O)N2CCC(C(=O)N3CCOCC3)CC2)cc1,i,.
CSc1ccccc1C(=O)N1CCOCC1,i,>57
CCN(CC)CCNc1nc2c(c(=O)[nH]c(=O)n2C)n1CCOc1ccccc1,.,>26
O=C(c1c[nH]c2ccc(S(=O)(=O)N3CCOCC3)cc2c1=O)N1CCN(c2ccccn2)CC1,i,>57
CCCCCn1c(CN2CCN(Cc3ccccc3)CC2)nc2c1c(=O)n(C)c(=O)n2C,i,>57
CCCn1c(C(C)NC(C)=O)nc2ccccc21 (centres undefined),i,.
CC1CCc2nc(NC(=O)C3CCCO3)sc2C1 (centres undefined),i,i
# Following part.
SMILES,YjeE inh,Bst PK mod
CC(C)CO,i,.
COC(=O)c1ccccc1NC(=O)CNC(=O)c1ccco1,i,.
CC1CCc2nn(CC(=O)NCc3ccco3)cc2C1 (centres undefined),i,.
COc1ccccc1-n1c(SCC(=O)Nc2ccccc2F)nc2[nH]ncc2c1=O,i,>57
CN1C(C)(C)CC(NC(=O)CCC(=O)NC2CC(C)(C)N(C)C(C)(C)C2)CC1(C)C,i,>57
O=C(c1ccncc1)N1CCC2(CCN(Cc3ccncc3)CC2)CC1,i,.
COC(=O)CSc1nc2ccc(NC(C)=O)cc2s1,i,>57
COc1ccc(-n2ccc(=O)c3c2CCCC3=O)cc1,.,>11
CCC(=O)Nc1ccc(N2CCN(C(=O)c3ccccc3C)CC2)cc1,i,>57
Cc1cc(NC(=O)C23CCC(C)(c4nc5cc(Cl)c(Cl)cc5nc42)C3(C)C)no1 (centres undefined),i,>57
CC(=O)[C@@]1(O)Cc2c(O)c3c(c(O)c2[C@H](O[C@H]2C[C@H](N)[C@H](O)[C@H](C)O2)C1)C(=O)c1ccccc1C3=O,50µM*,.
Cc1cccc(NC(=O)c2ccc(S(=O)(=O)N(C)C)cc2)c1,i,.
Cc1onc(-c2ccccc2Cl)c1C(=O)Nc1cccc(-c2cn3cccnc3n2)c1,i,>57
COc1ccc(C2/C(=C(\O)c3ccc4c(c3)OCCO4)C(=O)C(=O)N2CCCN(C)C)c(OC)c1 (centres undefined),i,>57
CCCC(=O)Nc1ccc(NC(=O)c2ccccc2Cl)nc1,i,>57
CC(=O)Nc1nonc1NC(=O)CSc1ncn[nH]1,i,>57
COC(=O)c1ccc(CSc2nnc(SCc3ccc(C(=O)OC)o3)s2)o1,i,>57
Cc1ccc(S(=O)(=O)NCc2cn3ccsc3n2)c(C)c1,i,>57
COc1ccccc1C(=O)n1nc(-c2ccc(Cl)cc2)nc1N,i,>57
COCCNC(=O)c1cc2c(-c3ccccc3F)nn(C)c2s1,i,.
Cc1cc(Cl)ccc1OCCCC(N)=O,i,>57
Cc1nc2ccccc2c2oc(C(=O)NCc3ccc4c(c3)OCO4)cc12,i,.
Cc1ccc(C2CC(=O)N3CN(Cc4ccco4)CSC3=C2C#N)cc1 (centres undefined),i,>57
O=C(NCc1ccccn1)C1CCN(S(=O)(=O)c2cccs2)CC1,i,>57
CCN(CC)S(=O)(=O)c1cccc(-c2nnc(SCC#N)n2Cc2ccccc2)c1,i,>57
# Remaining list, next part
SMILES,YjeE inh,Bst PK mod
O=C(O)C1=CCCN(CCON=C(c2ccccc2)c2ccccc2)C1,i,.
C=CCOc1ccc(/C(O)=C2/C(=O)C(=O)N(CCN3CCOCC3)C2c2ccc(C)cc2)cc1 (centres undefined),i,>57
COc1ccc(NC(=O)c2cc(OC)c(OC)c(OC)c2)cn1,i,>57
COc1ccc(C(=O)N(CN2CCCC2=O)c2ccccc2OC)cc1OC,i,>57
Cc1nc(N2CCN(Cc3ccccc3)CC2)[nH]c(=O)c1C,i,>57
Cn1nc(C(=O)N2CCN(S(=O)(=O)c3ccccc3)CC2)c2ccccc2c1=O,i,>57
CCNC(=O)NCCc1c[nH]c2ccc(Cl)cc12,i,.
CCc1nnc(NC(=O)CSc2nnc(-c3ccoc3C)n2-c2ccc(C)cc2)s1,i,>57
CCC1(C)CC(c2csc(N)n2)CCO1 (centres undefined),i,>57
COc1ccc(-c2cc(C(=O)N3CC4(C)CC3CC(C)(C)C4)no2)cc1OC (centres undefined),i,>57
CCC(C)NC(=O)CN1C(=O)CC(C)(C)S(=O)(=O)c2ccccc21 (centres undefined),i,.
CCOc1ccc(CCNC(=O)C2CCN(S(=O)(=O)N3CCOCC3)CC2)cc1OCC,i,>57
Cn1c(SCc2nc3ccccc3s2)nnc1-c1cccs1,i,>57
O=C1c2ccccc2C(=O)N1CCN1CCCCC1,i,>57
Cc1cc(=O)cc(C)[nH]1,i,>57
CN(C)c1ccc(NC(=O)CCCc2ccccc2)cc1,i,.
Cc1ccc2nsnc2c1S(=O)(=O)N(Cc1ccco1)Cc1cc2cccc(C)c2[nH]c1=O,i,>57
CC(=O)Nc1ccc(N2CCN(C(=O)c3cccs3)CC2)cc1,i,>57
CCN(CC(=O)Nc1ccc2c(c1)OCCO2)Cc1cc(=O)oc2c(C)c(C)ccc12,i,>57
Cc1sc2ncnc(N3CCN(c4ncccn4)CC3)c2c1C,i,>57
CS(=O)(=O)N(CC(=O)Nc1ccc2c(c1)OCO2)c1ccc(Cl)cc1,i,.
O=C(Nc1ccc2c(c1)OCCO2)c1cnc2n(c1=O)CCS2,i,.
CC1(C)CC(=O)C2=C(C1)N1CCCCC1CC2=O (centres undefined),i,>57
COC(=O)c1nnn(CC(=O)Nc2ccc(C)c(F)c2)c1C(=O)OC,i,>57
O=C(O)C1CCCCN1S(=O)(=O)c1ccc(Cl)s1 (centres undefined),i,.

# Shown tab-delimited: 17 of the compounds above.
mol	YjeE inh	Bst PK mod
CCC1(C)CC(c2csc(N)n2)CCO1 (centres undefined)	i	>57
COc1ccc(-c2cc(C(=O)N3CC4(C)CC3CC(C)(C)C4)no2)cc1OC (centres undefined)	i	>57
CCC(C)NC(=O)CN1C(=O)CC(C)(C)S(=O)(=O)c2ccccc21 (centres undefined)	i	.
CCOc1ccc(CCNC(=O)C2CCN(S(=O)(=O)N3CCOCC3)CC2)cc1OCC	i	>57
Cn1c(SCc2nc3ccccc3s2)nnc1-c1cccs1	i	>57
O=C1c2ccccc2C(=O)N1CCN1CCCCC1	i	>57
Cc1cc(=O)cc(C)[nH]1	i	>57
CN(C)c1ccc(NC(=O)CCCc2ccccc2)cc1	i	.
Cc1ccc2nsnc2c1S(=O)(=O)N(Cc1ccco1)Cc1cc2cccc(C)c2[nH]c1=O	i	>57
CC(=O)Nc1ccc(N2CCN(C(=O)c3cccs3)CC2)cc1	i	>57
CCN(CC(=O)Nc1ccc2c(c1)OCCO2)Cc1cc(=O)oc2c(C)c(C)ccc12	i	>57
Cc1sc2ncnc(N3CCN(c4ncccn4)CC3)c2c1C	i	>57
CS(=O)(=O)N(CC(=O)Nc1ccc2c(c1)OCO2)c1ccc(Cl)cc1	i	.
O=C(Nc1ccc2c(c1)OCCO2)c1cnc2n(c1=O)CCS2	i	.
CC1(C)CC(=O)C2=C(C1)N1CCCCC1CC2=O (centres undefined)	i	>57
COC(=O)c1nnn(CC(=O)Nc2ccc(C)c(F)c2)c1C(=O)OC	i	>57
O=C(O)C1CCCCN1S(=O)(=O)c1ccc(Cl)s1 (centres undefined)	i	.

# (more compounds)
SMILES,YjeE inh,Bst PK mod
Cc1ccc(C(=O)CSc2nnc(-c3ccco3)n2Cc2ccccc2)cc1,i,>57
COc1ccc(C2C(C(=O)c3ccco3)=C(O)C(=O)N2Cc2cccnc2)cc1OC (centres undefined),i,.
Cc1ccc2nc(NC3=NCN(Cc4ccc5c(c4)OCO5)CN3)nc(C)c2c1,i,>57
CNCCNS(=O)(=O)c1cccc2cnccc12,i,.
Nn1c(COc2ccccc2)nnc1SC(F)F,i,>57
O=C(NCC(O)c1ccccc1)c1cccc(S(=O)(=O)N2CCOCC2)c1 (centres undefined),i,>57
CN1CCN(Cc2c(O)ccc3occ(C(=O)c4ccccc4)c23)CC1,i,.
CC(Cc1ccccc1)C(=O)N1CCN(C)CC1 (centres undefined),i,.
CN(C)C(=O)c1ccc(-c2ccc3ncnc(N4CCOCC4)c3c2)cc1,i,.
CC(=O)CCC(=O)NCCc1ccccc1F,i,.
Cc1ccc(NC(=O)c2cccc(Cl)c2)nc1,i,>57
O=C(C1CCCN(S(=O)(=O)c2cccnc2)C1)N1CCn2c1nc1ccccc12 (centres undefined),i,.
Cc1ccc(C)c(NS(=O)(=O)c2c(C)nn(C)c2C)c1,i,>57
COc1ccc(C)cc1NC(=O)C1CCCCC1C(=O)O (centres undefined),i,>57
CCn1c(SCC(=O)Nc2cc(C)on2)nnc1-c1ccncc1,i,>57
O=C(CN(C(=O)CCC(=O)Nc1ccccn1)c1ccc2c(c1)OCO2)NCc1ccco1,i,>57
Cn1c(=O)c2cc(S(=O)(=O)NCCC(=O)Nc3ccc(Cl)cc3)ccc2n(C)c1=O,i,>57
Cc1ccc(S(=O)(=O)N2CCCSCC2)cc1,i,>57
CC(C)C[C@@H](CC(=O)N[C@@H](CCC(=O)O)CC(=O)O)NC(=O)[C@@H]1CCCC[C@H]1NC(=O)C[C@@H](NC(=O)C[C@H](Cc1ccccc1)NC(=O)[C@@H]1CNCC[C@H]1N)C(C)C,i,.
Cc1ccc(Cn2c(-c3nonc3N)nc3ccccc32)cc1,i,>57
COC(=O)CSc1nnc(-c2ccc(S(=O)(=O)NCc3cccs3)cc2)o1,i,>57

# This is a subset (hit frequency here may not be typical).
